Screening results deposited in PubChem BioAssay by Johns Hopkins Ion Channel Center.
KCNQ2 block – KCNQ2 potassium channel inhibitors, primary screen, cell-based, CHO-K1, FluxOR thallium flux, B-score (AID 2156) | Potassium voltage-gated channel subfamily KQT member 2 (Rattus norvegicus), O88943 | 20 min; stronger effect = lower value; only compounds with negative scores are shown here; some inactives read as strong as hits | 1.1% of 310,000 active | B-score at 10 µM;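 active = fluorescence ratio B-score at most minus 3 library SDs, with starting brightness B-score within 2 library SDs, cut at about -5.5 in these data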
Target sequence (O88943 whole entry, looked up): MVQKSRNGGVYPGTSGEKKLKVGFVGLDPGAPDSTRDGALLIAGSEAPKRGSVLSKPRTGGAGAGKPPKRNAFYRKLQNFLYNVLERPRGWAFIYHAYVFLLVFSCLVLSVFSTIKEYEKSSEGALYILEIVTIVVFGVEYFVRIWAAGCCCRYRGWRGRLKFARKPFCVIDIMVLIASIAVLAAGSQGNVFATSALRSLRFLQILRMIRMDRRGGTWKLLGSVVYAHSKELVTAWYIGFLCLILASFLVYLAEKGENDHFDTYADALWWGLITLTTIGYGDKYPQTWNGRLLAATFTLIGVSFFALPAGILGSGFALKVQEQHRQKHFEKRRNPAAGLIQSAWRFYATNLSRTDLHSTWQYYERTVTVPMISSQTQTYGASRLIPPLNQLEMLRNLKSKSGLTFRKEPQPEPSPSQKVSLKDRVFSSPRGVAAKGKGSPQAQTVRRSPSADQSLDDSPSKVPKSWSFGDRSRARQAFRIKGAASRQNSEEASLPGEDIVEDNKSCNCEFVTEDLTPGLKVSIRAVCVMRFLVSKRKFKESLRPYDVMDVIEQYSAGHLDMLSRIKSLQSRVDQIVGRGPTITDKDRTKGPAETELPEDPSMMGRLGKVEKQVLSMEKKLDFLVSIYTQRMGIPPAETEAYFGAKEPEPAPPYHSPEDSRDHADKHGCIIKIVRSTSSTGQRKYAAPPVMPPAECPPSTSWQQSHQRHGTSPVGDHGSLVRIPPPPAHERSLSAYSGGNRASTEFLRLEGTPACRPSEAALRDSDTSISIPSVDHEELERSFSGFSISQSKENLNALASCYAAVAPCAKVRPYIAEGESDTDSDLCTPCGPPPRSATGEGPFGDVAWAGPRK
KCNQ2 block baseline – second read-out of KCNQ2 block, no call of its own (marks repeat the call); B-score; measured here: initial fluorescence intensity artifact check;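 brightness before thallium and not channel activity; 0 = typical well and far values either way flag optical interference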
* marks the source's active call; other numbers are inactive results; i = inactive.

Values run as follows: KCNQ2 block	KCNQ2 block baseline
CN(C)c1ccc(CNc2ccccn2)cc1
    i	1.3
Nc1cccc(-n2nnnc2CN2CCOCC2)c1
    i	0.93
Cc1cc(C)nc(NC(=O)c2cccc(Cl)c2)n1
    i	-0.37
O=C1OCC(c2ccccc2)=C1c1ccccc1[N+](=O)[O-]
    i	0.03
CCOc1ccc(N=Nc2c(C)[nH]n(-c3ccccc3)c2=O)cc1
    i	1.4
O=C(NCCc1ccccc1)c1noc2c1CCCCC2
    i	1.6
O=C(O)c1sccc1S(=O)(=O)c1ccccc1
    i	1.7
COc1cccc(C(=O)O/N=C/c2ccc(Sc3ccc(C)cc3)nc2)c1
    i	1.8
COc1ccc(OC)c(S(=O)(=O)Nc2ccc(CC(=O)O)cc2)c1
    i	-2.4
C=CCN(C(=O)Nc1ccc2c(c1)nc(C)n2C)c1ccccc1
    i	-0.73
COc1cccc(C(=O)Nc2nnc(-c3ccc(OC)cc3OC)s2)c1
    i	0.17
COc1ccc(C2c3ccc(O)cc3Oc3ncn(Cc4ccco4)c(=N)c32)cc1OC (stereo not drawn)
    i	2.4
CN(C)S(=O)(=O)c1ccc(N2CCCC2)c(C(=O)Nc2ccc(C(N)=O)cc2)c1
    i	-0.15
COc1ccc(N(Cc2cc3cc(OC)ccc3[nH]c2=O)S(=O)(=O)c2ccc(NC(C)=O)cc2)cc1
    i	0.28
Cc1ccccc1N1CCN(C2CCCN(C(=O)CN3CCCC3=O)C2)CC1 (stereo not drawn)
    i	1.4
Cc1cccc(-n2c(SCC(=O)N3CC(=O)Nc4ccccc43)nc3ccccc3c2=O)c1C
    i	-1.1
O=C(CSCc1c(F)cccc1Cl)NCc1ccncc1
    i	-1.4
CCc1ccc(NC(=O)COC(=O)/C=C/c2c(C)nn(C3CCS(=O)(=O)C3)c2Cl)cc1 (stereo not drawn)
    i	0.24
O=C(Cc1cccs1)Nc1nc(-c2ccccc2)cs1
    i	-1.1
Cc1ccc(S(=O)(=O)N2CCCCC2CCNC(=O)C(=O)NCc2ccco2)cc1 (stereo not drawn)
    i	2.2
C[C@H](NC(=O)c1nc[nH]c1C(=O)N1CCc2ccccc2C1)C(=O)OCc1ccccc1
    i	-1.5
CCOC(=O)N1CCN(C(=O)c2ccc(NC(=O)c3ccc(C)cc3)cc2)CC1
    i	-0.1
CN(CCCN1CCOCC1)Cc1cn(C)nc1-c1ccccc1F
    i	-1.6
CCOC(=O)C1=C(C)NC(C)=C(C(=O)OCC)C1c1nc2ccccc2[nH]1
    i	0.24
O=C(CSc1nnc(CNC(=O)c2ccccc2)o1)c1ccc(Cl)cc1
    i	1
CC1CN=C(N(C(=O)Nc2ccccc2)C(C)c2ccccc2)S1 (stereo not drawn)
    i	0.63
O=C(c1cccc(Cl)c1)N1CCN(C(=O)c2ccccc2F)CC1
    i	0.5
COc1cc(NC(=O)Cc2ccc(Cl)cc2)ccc1NC(=O)c1ccco1
    i	0.31
CC1CCCCC1NC(=O)COC(=O)Cc1ccc(Br)cc1 (stereo not drawn)
    i	0.8
c1ccc(-n2ncc3c2ncn2cnnc32)cc1
    i	-1.9
Cc1ccc(NC(=O)N2CCc3ccccc3C2)cc1C
    i	1.8
Cc1ccc(C(C(=O)NCc2ccco2)N(CC2CCCO2)C(=O)Cn2nnc3ccccc32)cc1 (stereo not drawn)
    i	0.58
CN1C(=O)C2(NCCc3c2[nH]c2ccccc32)c2ccccc21 (stereo not drawn)
    i	0.01
CCC/C(O)=C1\C(=O)CC(C)(C)CC1=Nc1ccccc1OC
    i	0.05
O=C(NC1CC1)C1CC(=O)N(c2ccc(F)cc2)C1 (stereo not drawn)
    i	1
COC(=O)C(C(=O)OC)c1ccc(N)cc1
    i	1.7
O=[N+]([O-])c1c(Nc2ccc(O)cc2)cc(N2CCOCC2)c2nonc12
    i	-0.99
COc1ccc2ccccc2c1CNC(=O)CC1C(=O)NCCN1CC(C)C (stereo not drawn)
    i	0.18
COc1cccc(C(=O)Nc2cccc(-c3nnc(-c4ccccc4)o3)c2)c1
    i	-1.6
COc1ccc(N2C(=O)C3CCCN3C2c2ccccc2)cc1Cl (stereo not drawn)
    i	-2
O=C(CSc1ccccc1)NNC(=O)c1ccccc1O
    i	-1.1
CCc1ccc(NC(=O)CNC(=O)Cn2ccc3ccccc3c2=O)cc1
    i	0.17
CC1=C(C)C(=O)C(N2CCOCC2)=CC1=O
    i	-0.02
N#Cc1nc(-c2ccc(Cl)cc2)oc1N1CCCCC1
    i	0.16
CC(Sc1ccc([N+](=O)[O-])cn1)C(=O)Nc1nccs1 (stereo not drawn)
    i	-0.58
CCOC(=O)CNC(=O)C1CCCN(c2ncccn2)C1 (stereo not drawn)
    i	-0.3
CCOC(=O)N1CCC(NC(=O)c2ccc3c(c2)N(Cc2ccc(C)cc2)CCS3)CC1
    i	0.08
CN(C)CCNC(=O)C(=O)NCC1OCCN1S(=O)(=O)c1cc(F)ccc1F (stereo not drawn)
    i	-1.3
CCc1ccc(CNC(=O)C2CCN(c3nnc(C)c4c(C)n(-c5ccc(C)cc5)nc34)CC2)cc1
    i	-0.2
Clc1ccccc1-c1ncc(-c2ccccc2)o1
    i	1.1
COCCNC(=O)COc1ccc(C)cc1C
    i	-0.04
COc1ccc(N2C(=O)CSC2c2ccc(F)cc2)cc1 (stereo not drawn)
    i	0.36
COc1cccc(OC)c1C(=O)Nc1ccc(N2CCN(C(=O)c3cccs3)CC2)cc1
    i	1
C=CCN1C2CCCC1CC(NC(=S)Nc1ccc(Cl)cc1)C2 (stereo not drawn)
    i	0.48
CCC(=O)Oc1ccc2c(C)c(Cl)c(=O)oc2c1
    i	0.05
Cc1cnc(CNC(=O)c2ccc3oc(C(C)C)nc3c2)[nH]1
    i	0.15
Nc1nonc1/C(=N/O)N1CCCC1
    i	0.77
Cc1[nH]c2c(C(=O)N3CCCC(CCC(=O)NCc4ccccc4F)C3)cccc2c1C (stereo not drawn)
    i	0.81
Cc1ncoc1C(=O)NC1CC(C)(C)Cc2c1cnn2-c1ccc(F)cc1 (stereo not drawn)
    i	0.26
COc1cccc(N2CC(NC(=O)C(=O)c3c[nH]c4ccccc34)CC2=O)c1 (stereo not drawn)
    i	0.31

The list goes on:
molecule	KCNQ2 block	KCNQ2 block baseline
CCc1cccc2c1NC1(CCCC1)CC2C (stereo not drawn)	i	0.91
COC(=O)c1sc(NC(=O)c2oc3ccccc3c2C)nc1C	i	-0.66
O=C1CCCCC1C(=O)c1ccccc1 (stereo not drawn)	i	0.13
Cc1cccc(CCNc2nc3ccccc3n3nnnc23)c1	i	-0.26
Cn1ccnc1SCC(=O)NC1CC1	i	1.5
COC(=O)/C(=C\Nc1ccc(Cl)cc1Cl)NC(=O)c1ccc(OC)cc1	i	0.82
CNC(=O)c1sccc1SCc1c(Cl)cccc1Cl	i	-1.1
O=C(Nc1ccccc1)OCCCc1ccccc1	i	0.48
CC1CCc2c(C(=O)NCC3CCCO3)csc2C1 (stereo not drawn)	i	0.26
Cc1cccc(N/N=C(\C#N)S(=O)(=O)C(C)(C)C)c1	i	1.6
CC(=O)Nc1cccc(-n2nnc(SCC(=O)N(C)c3ccccc3)n2)c1	i	2.2
CCOC(=O)CC1COc2ccccc2N1C(=O)c1ccc(C)cc1 (stereo not drawn)	i	-0.65
NC(=O)c1ccc(SCC(=O)OCC(=O)NCC2CCCCC2)c([N+](=O)[O-])c1	i	0.21
Cc1cccc(C(=O)Nc2cccc3c2CCCC3)c1	i	1.8
O=C(COc1ccc(/C=N/NS(=O)(=O)c2ccccc2)cc1)NCCc1ccccc1	i	2.3
CCC(=O)NNc1nc2c(F)cccc2s1	i	1.2
CCOP(=O)(OCC)C(NC(=O)Nc1cccc(Cl)c1)c1ccccc1 (stereo not drawn)	i	1.2
NC(=NC(=O)c1ccccc1)N1CCOCC1	i	7
CC(=O)N1CCC(=NNc2nc3ccccc3[nH]2)CC1	i	-1.5
COc1ccc(-c2cc(C(=O)NNC(=O)c3csc(N4CCOCC4)n3)c3ccccc3n2)cc1	i	0.01
Cc1nn(C(C)C(=O)O)c2ccccc12 (stereo not drawn)	i	1.3
O=c1[nH]c(C2CCN(S(=O)(=O)c3ccccc3F)CC2)nc2c1nnn2Cc1ccc2c(c1)OCCO2	i	0.44
CCOc1ccccc1NC1c2ccccc2C(=O)N1c1cccnc1 (stereo not drawn)	i	0.76
COC(=O)C(CC(=O)c1ccc(Br)cc1)n1cccn1 (stereo not drawn)	i	0.01
COC(=O)C1(CCSC)NC(c2ccc(OC)cc2OC)C2C(=O)N(c3cccc(C(C)=O)c3)C(=O)C21 (stereo not drawn)	i	1.1
CCOc1ccc(S(=O)(=O)NC(C)C(=O)NCc2cccnc2)cc1 (stereo not drawn)	i	1.4
Cc1nnc2sc(SCC(=O)Nc3cccc(Cl)c3)nn2c1=O	i	-0.29
CCn1c(C)nc([N+](=O)[O-])c1Sc1ccc(F)cc1	i	1.4
COc1cccc(C2c3[nH]c4ccccc4c3C[C@H]3C(=O)N(C4CCN(Cc5ccccc5)CC4)CC(=O)N23)c1 (stereo partly drawn)	i	-0.69
COc1ccc(C(=O)c2cnc(C(C)C)n2C)cc1	i	0.62
CC1(c2ccccc2)CC(c2ccccc2)=Nc2ccccc2N1 (stereo not drawn)	i	-0.5
O=[N+]([O-])c1ccc2oc(C(O)c3cccc(Cl)c3)cc2c1 (stereo not drawn)	i	0.14
CCCCN(CC)Cc1c(O)ccc2c(-c3ccccc3)cc(=O)oc12	i	0.56
CCOC(=O)N1CCC(NC(=O)CN2C(=O)CSc3nc(C)cc(C)c32)CC1	i	-1.1
O=C(NNC(=O)c1ccccc1F)C1=NN(c2ccccc2)C(=O)CC1	i	-0.38
CC1=CC(C)(C)NC(=S)N1c1ccc(C)cc1	i	-0.7

Brought forward from above: 6 compounds, then new ones.
molecule	KCNQ2 block	KCNQ2 block baseline
CC1(c2ccccc2)CC(c2ccccc2)=Nc2ccccc2N1 (stereo not drawn)	i	-0.5
O=[N+]([O-])c1ccc2oc(C(O)c3cccc(Cl)c3)cc2c1 (stereo not drawn)	i	0.14
CCCCN(CC)Cc1c(O)ccc2c(-c3ccccc3)cc(=O)oc12	i	0.56
CCOC(=O)N1CCC(NC(=O)CN2C(=O)CSc3nc(C)cc(C)c32)CC1	i	-1.1
O=C(NNC(=O)c1ccccc1F)C1=NN(c2ccccc2)C(=O)CC1	i	-0.38
CC1=CC(C)(C)NC(=S)N1c1ccc(C)cc1	i	-0.7
Fc1ccc(CNCc2cccc(Br)c2)cc1	i	0.63
COc1ccccc1NCCC#N	i	-1.8
COC(=O)c1c(NC(=O)/C=C/c2ccc3c(c2)OCO3)sc(C)c1C	i	1.1
CCC(C)OC(=O)C[N+](C)(C)CCOC1CC2CCC1(C)C2(C)C (stereo not drawn)	i	-0.14
COC(c1ccccc1)c1nnc(CCC(=O)N(C)Cc2cccc(-n3cccn3)c2)o1 (stereo not drawn)	i	0.09
CCCCn1c(=O)[nH]c(=O)c2c1nc(-c1cc(Br)ccc1OC)n2C	i	-1
CCN(CC)C(=O)c1ccc(Cn2cc([N+](=O)[O-])cn2)o1	i	0.02
COCc1ccc(CN2CCC(N3CCC(C(=O)N4CCCC4)CC3)CC2)o1	i	0.84
COc1ccc(C(=O)CCN2CCC(C)CC2)cc1	i	0.49
COc1ccc(/C(C)=C2\SC(=S)N(CCC(=O)O)C2=O)cc1	i	-0.32
CC1CCN(C(=O)Cc2nn(C)c(=O)c3ccccc23)CC1	i	-0.62
O=c1c2c3c(sc2nc2n1CCC2)CCCC3	i	0.49
O=C(Nc1ccc(CN2CCOCC2)cc1)c1ccc(N2CCCC2)c([N+](=O)[O-])c1	i	1.5
CCOc1ccc(OCC)c(NC(=O)CN(C)S(=O)(=O)c2cnc[nH]2)c1	i	2.2
OCCC1CN(CC#Cc2ccccc2)CCN1C1CCCC1 (stereo not drawn)	i	-0.43
Fc1ccc(NC(=S)N2CCCC2)cc1Cl	i	0.24
Cc1ccc2cc(CN(Cc3ccco3)S(=O)(=O)c3c(C)ccc4nsnc34)c(=O)[nH]c2c1	i	1.1
COc1ccc(OC)c(NC(=O)c2ccc3c(c2)CCN3S(C)(=O)=O)c1	i	-1.4
Cc1ccc(N2C(=O)c3ccccc3C2=O)cc1	i	1.5
CCOc1ccccc1N1CCN(Cc2ccco2)CC1	i	0.85
CCOC(=O)c1c(CSc2cccs2)n(C)c2cc(Br)c(O)c(CN(C)C)c12	i	1.7
CCO[C@@H]1OC(C(=O)NCc2nc3ccccc3[nH]2)=C[C@H](c2csc3ccccc23)[C@H]1CCCO	i	0.21
CC1(C)c2[nH]c3ccccc3c2C[C@@H]2C(=O)N(Cc3ccccc3Cl)C(=O)N21	i	-0.66

Exported with the structure last: part of the list above.
KCNQ2 block,KCNQ2 block baseline,smiles
i,1.7,CCOC(=O)c1c(CSc2cccs2)n(C)c2cc(Br)c(O)c(CN(C)C)c12
i,0.21,CCO[C@@H]1OC(C(=O)NCc2nc3ccccc3[nH]2)=C[C@H](c2csc3ccccc23)[C@H]1CCCO

Arranged by formula weight (highest first): some entries from above
molecule	KCNQ2 block	KCNQ2 block baseline
Cc1ccc2cc(CN(Cc3ccco3)S(=O)(=O)c3c(C)ccc4nsnc34)c(=O)[nH]c2c1	i	1.1
O=C(Nc1ccc(CN2CCOCC2)cc1)c1ccc(N2CCCC2)c([N+](=O)[O-])c1	i	1.5
Fc1ccc(NC(=S)N2CCCC2)cc1Cl	i	0.24

An excerpt. The share of hits here may be higher or lower than overall.
